Vif TR-FRET – HIV-1 Vif–A3G interaction blockers – biochemical, TR-FRET, GST-Vif 1-94, biotin-A3G peptide, dose response retest, primary screen (AID 1117319) | inhibition, %; hits with a dose series show IC50 in µM | 260,000 tested, 0.57% active | TR-FRET GST-Vif / biotin-A3G peptide binding; higher % means a stronger effect; test concentration not given here; strong numbers were not always called active;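 active means above the screen mean plus three standard deviations and confirmed in dose response; inconclusive means results disagree or hit not tested in dose response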;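 further: Vif residues 1-94 fused to GST binding biotinylated APOBEC3G peptide 110-148; 0% = full assay without inhibitor and 100% = GST in place of GST-Vif; retest series ran down from 100 µM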
MLL AF4-AF9 inh – inhibitors of human MLL-AF4/AF9 interaction; inhibition, % at 10 µM; AlphaScreen, biotin-AF4 peptide binding to FLAG-AF9; AID 651704; 350,000 tested, 0.47% active;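 active means every replicate reaching a set inhibition limit, whatever the replicate mean, cut at about 25% in these data; inconclusive means mean inhibition reaches that limit but some replicates miss it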;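 further: 0% = plate neutral control median and 100% = total signal loss; the record names both 10 and 1 µM as test concentration; the first replicate is given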
Target sequence (P42568 whole entry, looked up): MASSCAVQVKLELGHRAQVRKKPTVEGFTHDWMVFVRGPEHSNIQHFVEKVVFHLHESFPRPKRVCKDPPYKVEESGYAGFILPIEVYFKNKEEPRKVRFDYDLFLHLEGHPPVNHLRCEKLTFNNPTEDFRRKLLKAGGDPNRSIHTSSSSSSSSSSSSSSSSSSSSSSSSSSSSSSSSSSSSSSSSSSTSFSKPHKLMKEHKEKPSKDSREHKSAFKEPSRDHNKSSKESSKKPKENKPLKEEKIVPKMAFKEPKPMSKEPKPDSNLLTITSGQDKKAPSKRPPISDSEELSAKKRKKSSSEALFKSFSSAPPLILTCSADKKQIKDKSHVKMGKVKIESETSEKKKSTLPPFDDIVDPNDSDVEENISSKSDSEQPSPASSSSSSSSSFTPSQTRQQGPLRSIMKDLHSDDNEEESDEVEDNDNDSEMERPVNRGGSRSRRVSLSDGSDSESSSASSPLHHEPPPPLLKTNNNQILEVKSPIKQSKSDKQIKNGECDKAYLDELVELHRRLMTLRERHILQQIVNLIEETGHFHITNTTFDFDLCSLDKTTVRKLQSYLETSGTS
T cruzi repl – blocks replication of Trypanosoma cruzi. inhibition, % (no concentration beside the values). T. cruzi beta-gal in NIH3T3, luminescence, 90 h. 300,000 tested, 1.4% active;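 active means mean inhibition across valid replicates above about 55%, limit read from the data; inconclusive means mean below that limit but half or more replicates reach it; inactive means mean below it, under half of replicates reach it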;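 further: signal also drops with host cell toxicity which is not excluded here; 0% = plate median of DMSO wells and 100% = zero luminescence signal; higher percent means less beta-gal luminescence so fewer parasites; stock transfer was 50 nL into about 50 µL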
Beta cell apopt – beta cell apoptosis inhibition; 300,000 tested, 0.8% active; INS-1E cytokine-induced death, ATP luminescence, 48 h; percent of positive-control rescue, neutral wells zero; protection from apoptosis, % (no concentration beside the values);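 active means all replicates at 75% or more, or half of them and the mean; inconclusive means half reach 75% but not the mean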;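 further: 0% = cytokine-treated negative control wells and 100% = positive control rescue; higher means more ATP so stronger rescue from cytokine killing; wells of about 40 µL received 100 nL stock; the first replicate is given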
Calb FLC – C. albicans growth modulation with fluconazole; C. albicans CaCi-2 (fluconazole-resistant clinical isolate) + fluconazole, Alamar Blue growth, 48 h; growth inhibition, % (concentration not given with the values); 300,000 tested, 0.57% active; AID 1979;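 active means most replicates above 75%; inconclusive means exactly half above 75%; inactive means most below 75%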;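 further: all wells also contain fluconazole at 8 µg/ml as a sub-toxic cotreatment; 0% = median of DMSO wells and 100% = median of geldanamycin control wells; wells of about 8 µL received 7.5 nL stock; the first replicate is given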
RanGTP-Impb inh – disruptors of Ran-importin-beta complex formation – biochemical, FRET, CFP-Ran, YFP-importin-beta, homogeneous, primary screen; cell-free CFP-Ran/YFP-importin-beta FRET ratio; inhibition, % (concentration not given with the values); 300,000 tested, 1.1% active;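 active means most replicates above 15%; inconclusive means exactly half above 15%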;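 further: 0% = DMSO wells and 100% = Ran loaded with GDP instead of GTP; wells of about 40 µL received 100 nL stock; the first replicate is given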
Ecoli rRNA inh – inhibitors of bacterial rRNA selective over humanized ribosomes; E. coli WT GFP vs humanized-ribosome RFP mutants, fluorescence, 24 h; hits give low values; DMSO median 0, no signal -100; 350,000 tested, 1.6% active; GFP signal change (wild-type ribosome), % (concentration not given with the values);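 active means significant combined selectivity score with lowered wild-type GFP, culture density cut under 30%, mutant RFP and density less affected; inactive means any of these conditions unmet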; further: one replicate is shown; some compounds called inactive have numbers as strong as hits
Bfl-1 A1 inh – inhibitors of the anti-apoptotic protein A1, read as caspase activation; MEF A1-2A-BIM cells, Caspase-Glo 3/7 luminescence, 3 h; percent of clofoctol response, vehicle zero; caspase activation, % (test concentration not listed); 330,000 tested, 0.066% active;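 active means over half of replicate activation scores above 10%, or exactly half above 10 with the replicate mean above 10; inconclusive means replicate mean below 10 yet half the replicates above 10; inactive means over half of replicates below 10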;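 further: wells of about 30 µL received 50 nL stock; many hits fall short of the cut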
Ecoli rRNA inh OD600 – second read-out of Ecoli rRNA inh, no call of its own (marks repeat the call); OD600 change, %; measured here: OD600 growth;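 optical density of the mix in the first replicate; 0 = DMSO median and -100 = no signal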
Ecoli rRNA inh RFP – recorded beside Ecoli rRNA inh, whose call it bears; RFP signal change, %; measured here: RFP humanized mutant strains;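 first replicate; 0 = DMSO median and -100 = no signal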
Starred values were filed as active, the others as inactive; ? = inconclusive; / = not tested or not shown; & = joins results of further samples. Not all compounds are listed; the hit share may differ from the screen's.

SMILES	Vif TR-FRET	MLL AF4-AF9 inh	T cruzi repl	Beta cell apopt	Calb FLC	RanGTP-Impb inh	Ecoli rRNA inh	Ecoli rRNA inh OD600	Ecoli rRNA inh RFP	Bfl-1 A1 inh
CC(=O)Nc1ccc(NC(=O)CCn2c(=O)oc3ccccc32)cc1	/	/	0	-4	-1	0.2	/	/	/	1.0
N=c1c(S(=O)(=O)c2ccccc2)cc2c(=O)n3ccccc3nc2n1CCCN1CCOCC1	/	7.4	13	/	4	155*	2	-3	2.4	0.0
O=C(c1ccc(NC(=O)C2(c3ccccc3)CCOCC2)cc1)N1CCOCC1	-9%	/	-5	0	1	-3.7	/	/	/	-0.3
COc1cccc(OCC(=O)Nc2c3c(nn2-c2ccccc2)CS(=O)(=O)C3)c1	4%	-0.3	-4	3	4	0.9	3	-1	-0.1	-0.3
CCN(CC(=O)Nc1ccc(N2CCOCC2)cc1)Cc1nc2ccccc2c(=O)[nH]1	0%&23%	/	-11	0	-3	-2.4	/	/	/	0.3
NC(=O)c1ccc(N=Cc2ccc([N+](=O)[O-])s2)cc1	26%	-7.9	/	1	/	/	-22	-28	-7.1	0.0
Cc1ccc(-c2nn(C(C)(C)C)c3ncnc(NS(=O)(=O)c4ccc([N+](=O)[O-])cc4)c23)cc1	-3%	-2.9	56*	19	?	4.4	6	13	2.1	0.6
Cc1ccccc1OCCn1cnc2cc([N+](=O)[O-])ccc2c1=O	-6%	1.7	60*	1	-14	3.1	15	7	3.7	0.5
CSCCC(NC(N)=O)C(=O)N(C)CC(=O)Nc1ccc(C)cc1 (stereo not given)	-5%	/	-11	-4	-6	2.6	/	/	/	0.8
COc1ccc2cc(-c3ccsc3)ncc2c1	/	1.5	/	-7	/	/	8	8	-8.2	-11
CCOc1ccc(N2C(=O)CC(SCC(=O)O)C2=O)cc1 (stereo not given)	11%	-0.5	-6	-6	-16	1.1	18	12	-1.7	1.2
CCOC(=O)CCc1c(C)nc(SCCN2CCCC2)c(C#N)c1C	-10%	/	11	-1	-32	6.1	/	/	/	-0.8
CC(=O)Sc1nc(-c2ccccc2)[nH]c1S(=O)(=O)c1ccc(C)cc1	-7%	/	-7	-2	2	0.8	/	/	/	0.1
N#CCC(=O)N/N=C/c1c(-c2ccccc2)n(-c2ccccc2)c2ccccc12	/	2.0	32	5	1	0.4	0	-5	-0.5	0.8
CCOC(=O)N/N=C1\CCc2ccccc21	0%	/	-6	-2	-8	-2.5	/	/	/	-2.5
Cc1nc(SC(C(N)=O)c2ccccc2)c(C#N)c(C)c1C (stereo not given)	-89%	-2.7	12	-9	4	5.4	12	3	0.3	0.0
O=C1c2oc3ccc(Cl)cc3c(=O)c2C(c2ccco2)N1CCN1CCOCC1 (stereo not given)	26%	5.5	-1	0	4	-0.4	0	-1	3.3	0.2
C=CCn1c(CCCNC(=O)CCC)nc2ccccc21	?	/	1	/	7	?	/	/	/	0.4
CCC(CC)C(=O)c1c[nH]c(C(=O)NCc2cccs2)c1	-6%	-0.2	1	5	-7	-3.5	-6	1	-5.3	0.9
O=C1CCc2cc(S(=O)(=O)N3CCN(c4ccccc4F)CC3)ccc2N1	-2%	/	7	7	-1	?	/	/	/	0.0
O=C(N[C@@H](Cc1ccccc1)C(=O)N1CCN(S(=O)(=O)c2cccc(F)c2)CC1)c1ccco1	-4%	-0.8	/	3	/	/	-4	-18	-0.4	-0.7
Cc1ccc(C(=O)N2CCN(C(=O)C3CCCO3)CC2)cc1 (stereo not given)	-2%	0.7	/	5	/	/	6	8	-2.4	1.1
COc1ccc(C2CC(=O)C(C=NCCN3CCOCC3)=C(O)C2)cc1 (stereo not given)	1%	/	-19	0	3	1.7	/	/	/	-0.5
CCN(CC)C(=O)c1ccccc1NS(C)(=O)=O	/	-5.9	-12	-5	-21	-1.7	-1	9	-2.2	1.0
Cc1cc(Br)cc(Cl)c1OC(=O)c1cnccn1	/	-1.5	-6	-7	-3	-2.2	7	0	-0.4	-0.2
CCOC(=O)c1cnc2ccc(OCC)cc2c1N1CCN(c2ccccc2)CC1	?	/	53	105*	26	1.7	/	/	/	-0.2
COc1ccc(/C=N/N=C2/C(=O)Nc3ccccc32)cc1O	/	-2.1	-18	-1	?	-1.2	0	-1	0.5	-0.2
O=C(CN1CCCC1)Nc1ccccc1Sc1ccc(Cl)cc1	/	2.9	6	-11	3	-2.2	-42*	20*	-4.8*	0.0
O=C(Cc1ccc(Cl)c(Cl)c1)Nc1cccc(S(=O)(=O)N2CCOCC2)c1	-5%	-0.1	2	-3	-15	0.4	-38	-65	-0.4	0.5
COc1ccc(S(=O)(=O)Nc2c(C)n(C)n(-c3ccccc3)c2=O)cc1	24%	/	3	-3	-5	-2.1	/	/	/	3.8
Cc1ccc(NC(=S)NC(=O)c2ccc(-c3ccccc3)cc2)c(C)c1	3%	/	-32	4	-2	-2.8	/	/	/	-0.6
CN(C(=O)CSc1nc2ccccc2c(=O)n1-c1ccccc1Cl)C1CCS(=O)(=O)C1 (stereo not given)	-2%	-1.1	/	-2	/	/	-1	-7	-2.8	0.8
Cc1ccccc1NC(=O)CSCc1nc(N)nc(Nc2ccccc2C)n1	/	-4.0	4	2	-11	0.3	-1	8	2.8	0.2
CCCCN(CC)C(=O)Cn1cnc2ccc(S(=O)(=O)N3CCC(C)CC3)cc2c1=O	0%	/	23	-6	28	2.4	/	/	/	1.0
CCOc1ccc(N(CC(=O)NCc2ccc(F)cc2)C(=O)CCC(=O)Nc2nccs2)cc1	/	4.0	10	-9	3	3.0	7	12	1.7	-0.4
CC(C)N1C[C@@]23C=C[C@@H](O2)C(C(=O)OCc2ccccc2)[C@H]3C1=O (stereo not given in full)	-1%	/	-3	-18	-6	-1.0	/	/	/	-0.6
CCOc1ccc(NC(=S)NC(=O)c2c(Cl)c(C)nn2C)c([N+](=O)[O-])c1	-5%	-12	6	4	-3	1.5	4	1	1.9	-0.1
Cc1ccc(OCC(=O)NCC(=O)n2nc(C)cc2C)cc1	-2%	/	-16	-20	0	-8.3	7	8	1.4	0.3
Cc1cccc(N(CC(=O)NCC2CCCO2)C(=O)CCC(=O)Nc2cc(C)on2)c1 (stereo not given)	24%	/	3	5	4	1.1	/	/	/	0.4
Cc1occc1C(=O)N1CCN(c2ncccn2)CC1	-1%	/	-4	-7	-3	-1.1	/	/	/	-0.6
CCc1nnc(SCC(=O)Nc2ccc(N3CCOCC3)cc2)o1	24%	/	1	4	-2	-2.7	/	/	/	-0.5
CC(=O)Nc1cccc(C(=O)N/N=C/c2ccc(C)o2)c1	18%	0.9	-1	/	-35	0.2	10	9	-2.6	0.4
C/C(=N/NC(=O)c1ccc(C)s1)c1cccc(NC(=O)COc2ccc(Cl)cc2Cl)c1	3%	/	0	7	-26	6.2	/	/	/	-0.1
COCOc1ccc(/C=C/C(=O)c2c(O)cc(OCOC)cc2OCOC)cc1	/	/	-9	5	15	3.5	/	/	/	-0.2
CCOC(=O)Cc1nnc(NC(=O)CSc2nnc3c(n2)[nH]c2ccccc23)s1	-5%	-9.4	-11	-8	-13	0.3	/	/	/	-0.2
O=C(NN=C1CCCCCC1)c1ccc2c(c1)OCO2	/	0.1	-10	-12	25	2.5	8	5	2.4	0.7
Cc1ccc2oc(=O)n(Cc3ccccc3)c2c1	/	-4.4	-11	-4	0	-1.4	-16	-11	-2.7	-0.4
Cc1ccc(NC(=O)Cc2ccccc2)cc1S(=O)(=O)N1CCOCC1	/	0.5	/	2	/	/	3	-23	3.2	1.4
O=C1CC(C(=O)Nc2ccccc2C(=O)O)C(c2ccccc2)O1 (stereo not given)	3%	/	-15	-3	0	0.5	/	/	/	-0.8
c1ccc2c(c1)nc(-c1ccncc1)n2CCNc1nc(CN2CCCCC2)cs1	/	-4.4	-15	-2	10	8.8	21	13	0.1	0.2
Cn1c(=NC(=O)CCl)sc2ccccc21	6%	-3.7	62*	-6	4	-1.4	2	6	1.4	3.5
COc1ccccc1CNC(=O)CCc1nnc2ccc(NCCCN3CCCC3=O)nn12	/	-1.1	-1	-1	2	-11	6	3	-2.5	0.5
COc1cc(CNCCc2ccccc2)cc(Br)c1OCC(=O)Nc1ccccc1C	/	2.5	50	7	-5	-4.1	-55	-80	-23	0.5
CC(/C=C1\SC(=S)N(NC(=O)c2ccncc2)C1=O)=C\c1ccccc1	?	-5.5	-19	7	17	-1.2	-32*	-24*	4.1*	0.1
N#CC1=C(N)Oc2cc(O)c(Cl)cc2C1c1ccccc1F (stereo not given)	/	1.8	-3	-1	-1	131*	1	-37	-1.3	-0.1
CCOC(=O)N1CCN(C(=O)Cn2nc(C)n3nc(-c4ccc(CC)cc4)cc3c2=O)CC1	/	-1.5	5	0	7	24	10	8	1.5	0.3
O=C(CC1SC(=Nc2ccc(OC(F)F)cc2)N(CCC2=CCCCC2)C1=O)Nc1ccccc1F (stereo not given)	/	-1.4	?	/	-5	5.2	11	9	4.0	-0.5
Cc1ccccc1NC(=S)NNC(=O)c1ccco1	1%	-2.1	0	/	-14	1.7	6	12	-0.7	/
Cc1sc(NC(=O)C2C3CCC(O3)C2C(=O)O)c(C(=O)OC(C)C)c1-c1ccc(Cl)cc1 (stereo not given)	-6%	/	-9	-12	0	-1.9	/	/	/	1.1
COc1ccc(C)cc1-n1c(SCC(=O)NCC2CCCO2)nc2c([nH]c3ccccc32)c1=O (stereo not given)	-1%	2.2	2	1	6	4.2	-5	-16	0.3	-0.2
Next part:
SMILES	Vif TR-FRET	MLL AF4-AF9 inh	T cruzi repl	Beta cell apopt	Calb FLC	RanGTP-Impb inh	Ecoli rRNA inh	Ecoli rRNA inh OD600	Ecoli rRNA inh RFP	Bfl-1 A1 inh
CCSc1ccccc1C(=O)N1CCN(c2ccccc2F)CC1	0%	/	-8	-8	7	-2.5	/	/	/	0.5
COc1ccc(CN2CCC(N3CC(C)OC(C)C3)CC2)c(OC)c1 (stereo not given)	/	-0.5	1	1	-3	?	11	18	-0.5	0.5
O=C(Nc1nc(-c2ccccc2)c(-c2ccccc2)s1)c1ccc(S(=O)(=O)N2CCCCC2)cc1	-5%	/	3	-5	-1	6.7	/	/	/	0.0
O=C(CSC(=S)N1CCOCC1)N1N=CCC1c1ccccc1 (stereo not given)	3%	/	-10	-1	41	-1.9	/	/	/	0.5
CCN(CC)S(=O)(=O)c1ccc(NC2c3ccccc3C(=O)N2c2ccc(C)cn2)cc1 (stereo not given)	7%	-1.7	17	6	0	1.5	4	3	-6.1	0.1
O=C1c2ccccc2C(=O)C1c1ccc(Br)cc1	/	1.1	4	-4	-1	0.2	1	-1	-3.1	-6.3

Bioassay records as filed in PubChem.
